miR-21 reporter – qHTS Assay for Modulators of miRNAs and/orActivators of miR-21; AID 2288, 2010; HeLa miR-21 FLuc reporter, luciferase, 48 h; Potency, µM (titrated, usually from 38.3 µM), inactives show at the top dose reporter change, positive = more light; 340,000 tested, under 10 active; active = well fitted rising curve with a large enough effect; inconclusive = small, poorly fitted or top-dose-only effect; inactive = no such curve, though single readings can be large or run the other way;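 also: % of control where 0% means no effect; miR-21 action dims this reporter so a rising signal means less miR-21 action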
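Compounds were titrated across several concentrations (up to approximately 40 uM) and incubated 48 hours with HeLa miR-21-FLuc reporter cells (miR-21 target sequence downstream of FLuc, endogenous miR-21). Readout was firefly luciferase luminescence after lytic detection reagent.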
Rango dissoc inh – qHTS Assay for Inhibitors of RanGTP induced Rango (Ran-regulated importin-beta cargo) - Importin beta complex dissociation | AID 540253, 2011 | Potency, µM (highest dose often 46.1 µM), for the others: at the highest dose activity change, negative = inhibition | 340,000 tested, 0.071% active | Snurportin-1 (Homo sapiens) + GTP-binding nuclear protein Ran (Homo sapiens) + Importin … | Biochemical FRET Rango-importin beta, RanGTP-induced dissociation; active means falling FRET ratio curve, often poorly fitted, with flat reads before Ran was added; inconclusive means other falling curves, or compound fluorescence or quenching; inactive means flat or rising ratio curve;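 also: potency is read from the fitted curve at half-maximal effect; % of control where 0% means no effect; nearly all actives have a fitted effect of over 45% in size; -100% = wells without RanGTP and RCC1; the record marks most hits as doubtful in a second field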
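FRET read at 45 min, room temperature: inhibitors block the CFP/YFP signal rise when RanGTP (0.6 uM Ran, 2 mM GTP, 0.2 uM RCC1) frees Rango (0.1 uM) from importin beta (0.25 uM). Pre-read after 5 min compound exposure flags interference.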
GLA inh pH 4.5 – qHTS Assay for Inhibitors of Human alpha-Galactosidase at pH 4.5; 230,000 tested, under 10 active; purified enzyme, 4-MU-alpha-Gal fluorescence, pH 4.5; activity change, negative = inhibition, % at 105 µM; inconclusive = small, poorly fitted or top-dose-only inhibition, or a rising curve; inactive = flat fitted curve, though single readings scatter; no compound was filed as active;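 also: 0% = full activity with enzyme and -100% = basal without enzyme; dose as in the result columns while the protocol names 77 µM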
Target sequence (P06280 whole entry, looked up): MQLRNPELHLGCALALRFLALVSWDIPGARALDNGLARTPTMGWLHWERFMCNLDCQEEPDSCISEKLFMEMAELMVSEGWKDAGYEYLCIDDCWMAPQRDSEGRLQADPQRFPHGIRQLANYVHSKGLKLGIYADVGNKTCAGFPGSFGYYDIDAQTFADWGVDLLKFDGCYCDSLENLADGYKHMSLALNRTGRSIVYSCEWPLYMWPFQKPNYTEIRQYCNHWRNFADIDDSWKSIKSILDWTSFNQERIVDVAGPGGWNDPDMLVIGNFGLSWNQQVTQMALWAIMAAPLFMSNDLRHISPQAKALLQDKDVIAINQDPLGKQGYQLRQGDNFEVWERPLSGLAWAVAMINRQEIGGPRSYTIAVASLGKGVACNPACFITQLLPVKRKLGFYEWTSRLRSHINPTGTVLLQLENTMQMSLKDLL
Rango-impB inh – qHTS Assay for Inhibitors of Rango (Ran-regulated importin-beta cargo) - Importin beta complex formation; Importin subunit beta-1 (Homo sapiens), Q14974; Rango CFP/YFP FRET sensor + importin beta, 45 min; Potency, µM (highest dose often 92.2 µM), inactives show at the highest dose inhibition of complex formation; 340,000 tested, 0.031% active; AID 540263, 2011; active = rising FRET ratio curve, often small or poorly fitted; inconclusive = mostly compound fluorescence or quenching in the first reads; inactive = flat curves in all reads;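 also: potency is read from the fitted curve at half-maximal effect; 0% = DMSO wells and 100% = buffer wells lacking importin beta; nearly all actives have a fitted effect of over 15% in size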
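FRET biosensor (snurportin 1 IBB flanked by EYFP and cerulean), 50 nM, with compound 5 min, then 0.125 microM importin beta in PBS, 1 mM DTT, 0.02% Tween-20, 0.1% BSA. CFP/YFP ratio read after 45 min at room temperature; pre-read flags interference.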
Starred values were filed as active, the others as inactive; ? = inconclusive; . = no result given; & = joins results of further samples; [ ] = dose if it differs, or a comment. An excerpt; rates above refer to the full screens.

smiles	miR-21 reporter	Rango dissoc inh	GLA inh pH 4.5	Rango-impB inh
O=C(Nc1ccc(OC(F)(F)F)cc1)c1ccc(S(=O)(=O)N2CCOCC2)o1	18%	-3%	-3	-0.4%
O=C(O)CSc1c(O)c2ccccc2[nH]c1=O	0%	1%	3	7.9%
CNC(=O)C(=O)NCC1CCCN1S(=O)(=O)c1cccs1 (centres undefined)	.	-1%	.	0.2%
CCN(CC(=O)Nc1c(F)cccc1F)C(=O)Cc1ccc2c(c1)CCC2	.	-11%	.	5.7%
CC(C)c1nnc(NC(=O)C2CCN(C(=O)Nc3ccccc3)CC2)s1	5%	15%	.	-1.7%
COc1ccc(-c2cn(-c3ccccc3)nc2C(=O)O)cc1OC	-10%	-2%	.	-2.9%
Cc1ccc(S(=O)(=O)N2CCOCC2)cc1C(=O)NC1CCSc2ccccc21 (centres undefined)	-4%	23%	.	0.6%
CCOc1ccc(N2C(=O)CC(NCC#N)C2=O)cc1 (centres undefined)	3%	13%	.	4.1%
Cc1ccccc1NC(=O)Cc1nc(COC(=O)c2cccc([N+](=O)[O-])c2)cs1	-1%	-5%	.	0.5%
CC(=O)n1cc(/C=N/NC(=O)c2ccc(Cl)cc2)c2ccccc21	-35%	6%	.	-2.8%
COc1ccc(OC)c2[nH]c(C(=O)N/N=C/c3ccccc3O)cc12	22%	-16%	.	0.4%
Cc1ccc(NC(=S)N(Cc2cccc(Br)c2)CC2CCC(C(=O)O)CC2)cc1Cl (centres undefined)	0%	-8%	-1[21.1 µM]	-5.0%
CCOc1cc(C(=O)NCC(=O)N/N=C/c2sccc2C)cc(OCC)c1OCC	4%	-1%	-2	2.6%
O=C(Nc1nc(-c2cc3ccccc3oc2=O)cs1)c1ccco1	-14%	-19%	-17	-0.7%
CCOC(=O)c1nn(-c2ccc(F)cc2)c(-c2ccccc2)c1C(=O)c1ccccc1	1%	31%	-6	1.1%
O=S(=O)(Nc1cc(S(=O)(=O)N2CCOCC2)ccc1NCC1CCCO1)c1ccc(F)cc1 (centres undefined)	.	-6%	.	-7.0%
O=[N+]([O-])c1cc(S(=O)(=O)N2CCCCC2)ccc1NCCCN1CCOCC1	6%	4%	-3	3.1%
COC(=O)c1ccc(OC)c(Cn2c(=O)n(C)c(=O)c3ccccc32)c1	-10%	8%	.	1.0%
COC(=O)c1cccc(CN2C(=O)SC(Nc3ccccc3)C2=O)c1 (centres undefined)	0%	-3%	-4	1.6%
CN1CCC(OC(=O)c2cc3cc(Cl)cc(Cl)c3oc2=O)CC1	3%	?	.	?
CCOC(=O)CSc1nnc(NC(=O)c2cccc(S(=O)(=O)N3CCCCCC3)c2)s1	-4%	13%	0	-4.8%
COc1ccccc1/C=N/NC(=O)CCn1cnc2ccccc21	0%	-11%	-1	-1.9%
O=C(NCc1ccncc1)C1CCCN(S(=O)(=O)c2cc(Cl)ccc2Cl)C1 (centres undefined)	.	-12%	.	2.3%
CN(Cc1ccccc1)S(=O)(=O)c1ccc(NC(=S)NC(=O)C2CCCC2)cc1	26%	1%	3	-0.1%

As a short view, some entries already given.
smiles	miR-21 reporter	Rango dissoc inh	GLA inh pH 4.5	Rango-impB inh
CCOC(=O)CSc1nnc(NC(=O)c2cccc(S(=O)(=O)N3CCCCCC3)c2)s1	-4%	13%	0	-4.8%
COc1ccccc1/C=N/NC(=O)CCn1cnc2ccccc21	0%	-11%	-1	-1.9%
O=C(NCc1ccncc1)C1CCCN(S(=O)(=O)c2cc(Cl)ccc2Cl)C1 (centres undefined)	.	-12%	.	2.3%
CN(Cc1ccccc1)S(=O)(=O)c1ccc(NC(=S)NC(=O)C2CCCC2)cc1	26%	1%	3	-0.1%

(more compounds)
smiles	miR-21 reporter	Rango dissoc inh	GLA inh pH 4.5	Rango-impB inh
C[C@@H]1CCC[C@H](C)N1NC(=O)c1ccc(Cl)c(S(N)(=O)=O)c1	1%	1%	-1&2	5.2%
O=C(COc1ccc2ccccc2c1Br)N1CCOCC1	-57%	-3%	-3	2.2%
O=c1c(O[C@@H]2O[C@H](CO)[C@H](O)[C@H](O)[C@H]2O)c(-c2ccc(O)c(O)c2)oc2cc(O)cc(O)c12	-1%	.	-9	.
Cc1cccc2cc(CNCc3ccccc3)c(Cl)nc12	-9%	1%	-3	-4.8%
COc1ccc(CCNC(=O)c2ccc(CNc3c(N4CCOCC4)c(=O)c3=O)cc2)cc1OC	-1%	5%	2	1.4%
Cc1ccc(-c2csc3ncnc(N4CCN(S(=O)(=O)c5cccs5)CC4)c23)cc1	.	2%	.	?
O=C(NCc1ccc2c(c1)OCO2)c1ccc(Cl)c(S(=O)(=O)N2CCOCC2)c1	-5%	6%	5	0.0%
COc1ccccc1Nc1nnc(SCC(=O)Nc2nc(-c3ccc(F)cc3)cs2)s1	-11%	-2%	5	0.4%
CN(Cc1c(O)ccc2c1oc(=O)c1ccccc12)C1CCCCC1	-10%	-27%	-7	?
Nc1cccc(C(=O)OCC(=O)Nc2cccc3c2C(=O)c2ccccc2C3=O)c1	-3%	-12%	-2	3.6%
O=[N+]([O-])c1ccc2nc(-c3ccccn3)[nH]c2c1	17%	2%	-8	-2.3%
COc1ccccc1N1CCN(C(=O)CCc2nnc3ccc(N4CCOCC4)nn23)CC1	1%	-9%	.	0.7%
CC(C)c1ccc(-n2c(-c3ccccc3)c[n+]3c2CCc2ccccc2-3)cc1	28%	-26%	11	1.0%
C/C(=C\C(=S)Nc1ccccc1)Nc1ccccc1	-3%	-1%	8	3.3%
O=C(NCCCn1ccnc1)c1ccc(Br)c(S(=O)(=O)N2CCOCC2)c1	-4%	2%	-1	1.2%
CCCCCCCN1N=C(C)C(C(=O)c2ccccc2)C1=O (centres undefined)	18%	-8%	0	-0.1%
CCCCOCCCn1cnc2c([nH]c3cc(OC)ccc32)c1=O	0%	-10%	-1	-1.7%
COc1cccc(C(=O)Nc2cccc(OCC(=O)c3ccccc3)c2)c1	9%	-2%	9	-0.1%
CC1CCCC(C)N1C(=O)CSc1nnnn1Cc1ccccc1 (centres undefined)	-8%	-11%	2	-0.2%
O=C1CCCN1CCCNc1ncnc2sccc12	0%	1%	-6	2.2%
CN(C)S(=O)(=O)Nc1ccc(C(=O)O)cc1	-6%	-15%	-12	3.1%
Nc1ccc2c(c1)C(=O)c1ccc(Br)cc1-2	.	14%	.	2.4%
COc1ccc2c(c1)c(C(=O)N/N=C/c1ccc(Cl)cc1)c(C)n2C	18%	7%	-2	-2.5%
COc1ccc(NC(=O)NNC(=O)C(O)(c2ccccc2)c2ccccc2)cc1	5%	15%	.	13%

Entries from the list above that have an aryl thioether with sulfur outside any ring, in the order listed:
smiles	miR-21 reporter	Rango dissoc inh	GLA inh pH 4.5	Rango-impB inh
O=C(O)CSc1c(O)c2ccccc2[nH]c1=O	0%	1%	3	7.9%
CCOC(=O)CSc1nnc(NC(=O)c2cccc(S(=O)(=O)N3CCCCCC3)c2)s1	-4%	13%	0	-4.8%
COc1ccccc1Nc1nnc(SCC(=O)Nc2nc(-c3ccc(F)cc3)cs2)s1	-11%	-2%	5	0.4%
CC1CCCC(C)N1C(=O)CSc1nnnn1Cc1ccccc1 (centres undefined)	-8%	-11%	2	-0.2%

Carrying on:
smiles	miR-21 reporter	Rango dissoc inh	GLA inh pH 4.5	Rango-impB inh
CN1CCN(CCCNC(=O)CCCOc2cc(=O)n(C)c3ccccc23)CC1	-5%	-4%	-11	?
COc1cc(/C=N/N=C(/N)c2nonc2N)cc(Br)c1OCc1ccccc1C	1%	5%	0	-0.6%
CC(NC(=O)C(C)(C)C)c1nc2ccccc2n1C (centres undefined)	-3%	13%	-2	2.3%
COC(=O)[C@@H](Cc1ccccc1)NS(=O)(=O)N[C@H](Cc1ccccc1)C(=O)OC	.	-12%	.	-0.7%
C=CCSc1nnc2c(n1)OC(c1cccnc1)Nc1ccccc1-2 (centres undefined)	-39%	-8%	11	1.5%
CCc1nc(N2CCCC2)c(C#N)c2c1CCCC2	-6%	-16%	4	-5.9%
Cc1[nH]nc2cn[nH]c12	18%	-14%	0	-1.0%
O=C(NCC(c1ccco1)N1CCOCC1)c1c(F)cccc1F (centres undefined)	.	-16%	.	2.6%
Cc1onc(-c2ccccc2)c1C(=O)Nc1ccc(N2CCOCC2)cc1	-5%	0%	3	1.2%
Cc1ccccc1NS(=O)(=O)c1ccc(OCC(=O)N2CCCC2)cc1	-1%	2%	-5	1.1%
Cn1c(N)c(C(=O)COC(=O)C2=NNC(=O)CC2)c(=O)n(C)c1=O	-5%	-11%	-1	0.9%
Cc1[nH]c2ccccc2c1SCc1ccccc1	-9%	-21%	-13	3.4%
COC(=O)NNC(=O)c1ccc(C(C)(C)C)cc1	-45%	13%	-1	-1.3%
O=C(NCCSc1ccccn1)c1ccc(Cl)cc1	-21%	9%	-2	-2.5%
O=C(CN(Cc1ccccc1)C(=O)CNS(=O)(=O)c1ccccc1)NCC1CCCO1 (centres undefined)	2%	-6%	.	4.0%
Cc1nc(N2CCN(C)CC2)c2cc(-c3ccccc3)sc2n1	-20%	1%	-5[21.1 µM]	-2.6%
Cc1nc2ncnn2c(C)c1CCC(=O)N1CCc2ccccc2C1	-8%	-16%	-6	-2.9%
COc1ccc2sc(NC(=O)NC(=O)c3c(Cl)cccc3Cl)nc2c1	-17%	1%	5	0.4%
Nc1nc2nc(-c3ccccc3)cc(=O)n2[nH]1	9%&0%	-6%	-7	7.0%
CCCc1cc(=O)[nH]c(SCC(=O)Nc2ccc(N3CCCCC3)cc2)n1	.	17%	.	1.3%
O=C(CN1C(=O)c2ccccc2C1=O)N(CCO)Cc1ccccc1	3%	-4%	.	-0.4%
CC(C)Oc1ccc(CC(=O)NNC(=S)Nc2ccccc2)cc1	-2%	-1%	-6	-0.6%
CSCCCNC(=S)N1CCN(c2ccc(C(C)=O)cc2)CC1	-1%	-3%	5	-2.4%
COc1ccc(C(=O)C2CCCN(C(=O)Cn3ccc(C)n3)C2)cc1OC (centres undefined)	-2%	-3%	-4	-1.0%
COC(=O)C1=C(C)N(CCCC(=O)O)C(=O)NC1c1ccccc1OS(=O)(=O)c1ccccc1[N+](=O)[O-] (centres undefined)	.	-5%	.	-4.9%
Cc1ccc(S(=O)(=O)Nc2c(O)c3ccccc3oc2=O)cc1	-21%	-18%	.	-2.9%
Cc1cc(CC(C)C)n(-c2nc3ccccc3c(=O)n2OCC(=O)N(C)C)n1	-69%	18%	-1	0.7%
O=C(NCc1ccco1)c1sc2ccccc2c1Cl	-59%	-12%	-13	-0.2%
COC(=O)C1=C(C)NC(C)=C(C(=O)OC)C1c1ccc(OC(=O)c2ccco2)cc1	-9%	1%	22	-2.6%
CS(=O)(=O)O/N=C1\CCCCC1c1ccc([N+](=O)[O-])cc1[N+](=O)[O-] (centres undefined)	5%	4%	.	-0.1%
CC(C)(C)C(=O)Nc1cc(S(=O)(=O)N2CCCCC2)ccc1N1CCCCC1	0%	-7%	-11	-1.1%
COc1ccccc1NC(=O)CCNS(=O)(=O)c1ccc2c(c1)CCN2C(C)=O	-1%	3%	.	-1.6%
C=CCOc1ccc(/C=C2\SC(=S)N(CCC(=O)O)C2=O)cc1	28%	5%	-3	-4.6%
CNC(=O)Cn1nc(-c2ccc(Cl)cc2)c2ccccc2c1=O	3%&0%	1%	.	1.8%
